Assay outcomes deposited in PubChem by Center for Chemical Genomics, University of Michigan.
TAR Tat displ – TAR RNA-Tat peptide displacers, HIV-1, primary screen, biochemical, FRET, FAM/TAMRA-labeled Tat; HIV-1 TAR RNA, Tat peptide displacement FRET; stronger effect = higher value; z-score (no concentration beside the values); actives 0.6% (n = 100,000);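 note: score is relative to mean and SD of negative controls; some compounds called inactive have numbers as strong as hits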
CDC25B-CDK2 inh – primary biochemical HTRF screen for blockers of M-phase inducer phosphatase 2 binding to CDK2/cyclin A | P30305+P24941 | HTRF CDC25B-CDK2/CyclinA binding, anti-His/anti-Flag; stronger effect = higher value | z-score (test concentration not listed) | actives 0.72% (n = 94,000);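 note: score is relative to mean and SD of negative controls; strong numbers were not always called active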
* hit, by the source's call; nt = no result given.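 Rule for the calls: active = z-score from 3 up in half or more of its runs; inactive = the rest.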 The order is random; about 0.94% have a hit in one of these screens.

Value order: TAR Tat displ	CDC25B-CDK2 inh
> COC(=O)c1cc(COc2cc3oc(=O)c4c(c3cc2Cl)CCCC4)c(C)o1
 : nt	0.16
> O=C(O)/C=C/C(=O)Nc1ccc(C(F)(F)F)cc1NC(=O)/C=C/C(=O)O
 : nt	-0.58
> Cc1c(C(=O)N2CCCC2)oc2c1-c1nn(CC(=O)NCCN3CCCCC3C)cc1CC2 (centres undefined)
 : 2	nt
> Cc1ccc(C2CC(=O)c3cnc4c(-c5ccccc5)c(C)nn4c3C2)cc1 (centres undefined)
 : -0.78	-1.3
> Cc1noc(/C=C/c2ccco2)c1S(=O)(=O)N1CCC(C(=O)N2CC(C)CC(C)C2)CC1 (centres undefined)
 : 1.8	-2.3
> CCN(CC)c1ccc(NS(=O)(=O)c2ccc3c(c2)CC(C)N3C(=O)C2CCC2)c(C)c1 (centres undefined)
 : 0.5	nt
> CCCc1nn2c(=O)cc(COC(=O)c3cccc(Cl)c3)nc2s1
 : 0.7	nt
> O=C1CN(/N=C/c2ccc(-c3ccc([N+](=O)[O-])cc3)o2)C(=O)N1
 : nt	-1.3
> COc1ccc(C2CC(=O)C3=C(C2)NC(=O)CC3c2ccc(SC)cc2)cc1OC (centres undefined)
 : 2.1	-0.84
> CC1=C(C(=O)N2CCOCC2)C(c2ccsc2)C2=C(CCCC2=O)N1 (centres undefined)
 : 1.6	nt
> O=C(Cn1c2ccccc2n2c(=O)cc(-c3ccccc3)nc12)NC1CCCC1
 : 1.6	nt
> O=C(C1Cc2ccccc2N1C(=O)c1ccccc1)N1CCC(N2CCCCC2)CC1 (centres undefined)
 : 1.2	nt
> CC(=O)N1c2ccc(S(=O)(=O)NCC3CCC(C(=O)Nc4cccc(C)n4)CC3)cc2CC1C (centres undefined)
 : -0.67	nt
> CCCN1CNC(=S)N(c2ccc(C)cc2)C1
 : nt	-2.3
> COc1ccc(Nc2nn3c(=O)c4ccccc4nc3s2)c(OC)c1
 : 2	nt
> COc1ccc(-c2noc(COc3ccc(Cl)cc3)n2)cc1OC
 : 0.55	-1.6
> Clc1nc2ncccc2nc1-c1ccccc1
 : -0.9	1.7
> COc1ccccc1/C=C/c1nc(C#N)c(NCCCN(C)C)o1
 : 2	-1.8
> CC1=C(c2ccccc2)S(=O)(=O)NC1=NCCC1=CCCCC1
 : -1.2	0.35
> Cn1c(SCc2ccccc2Cl)nnc1-c1ccc2c(c1)OCCCO2
 : 1.8	nt
> CCOC(=O)Cn1cc(S(=O)(=O)N2CCC(C)CC2)c(S(=O)(=O)N2CCC(C)CC2)c1
 : 0.55	nt
> CC1CCN(c2ccc(NS(=O)(=O)c3ccc4c(c3)C(C)(C)C(=O)N4C)cc2)CC1
 : 0.1	nt
> O=C(CCC(=O)N1CCSc2ccccc21)NCCN1CCOCC1
 : 2	nt
> O=C(Cn1ncc2c1-c1ccccc1OC2)Nc1ccccc1Cl
 : 1.9	-0.3
> CCCOC(=O)c1c(NC(=O)Cn2nc([N+](=O)[O-])cc2C)sc2c1CCCC2
 : 1.5	-0.65
> Cc1cc2nc(SCCOC(=O)Nc3ccc(Cl)cc3)nc(C)c2cc1C
 : nt	-4.2
> O=C(NCc1ccco1)c1ccc2nc(-c3cccs3)c(-c3cccs3)nc2c1
 : -0.7	nt
> Cc1cc(N2CCCCC2)n2nc(C)c(-c3ccc(F)cc3)c2n1
 : -0.33	0.06
> C=Cc1ccc(Cn2c(C)c(CNCCc3ccco3)c(C(=O)O)c2C)cc1
 : -1.5	1.9
> O=C(Nc1ccccc1F)c1[nH]nc2c1COc1ccccc1-2
 : -0.01	nt
> C=CCSc1ncc(Cl)c(C(=O)N(Cc2ccc(F)cc2)C2CCS(=O)(=O)C2)n1 (centres undefined)
 : 0.84	-0.51
> Cc1ccc2cc(NC(=O)C3CC(=O)N(Cc4ccc(F)cc4)C3)ccc2n1 (centres undefined)
 : nt	6.6*
> CSc1sc(C)cc1C1C(C#N)=C(N)N(c2cccnc2)C2=C1C(=O)CC(c1ccccc1)C2 (centres undefined)
 : 1.7	-3.6
> CCC1(CC)Cc2ccccc2C2=C(C(=O)N3CCOCC3)C(=O)C(=O)N21
 : 2.2	-0.42
> CC1CCCCN1C(=O)CSc1nc(-c2cccs2)cc(C(F)(F)F)n1 (centres undefined)
 : -1.7	-0.42
> O=C(O)COc1ccc2nccnc2c1
 : 0.63	nt
> O=C(O)CN1C(=O)c2ccccc2Sc2ncccc21
 : -0.32	-2.1
> COc1ccc(NC(=O)CSc2nccn2C)c(OC)c1
 : 0.3	-0.52
> Clc1ccc(-n2ncc3c(N4CCN(c5ccccc5)CC4)ncnc32)cc1
 : 1.6	nt
> COc1nccn(-c2ccc(Br)cc2)c1=O
 : -1.9	-1.2
> CCCCNc1sc(S(C)(=O)=O)nc1S(=O)(=O)c1ccc(C)cc1
 : -0.16	-0.46
> Cc1ccc2nc(C3=C(O)CN(c4cccc(F)c4)C3=N)[nH]c2c1
 : 2.2	1.7
> O=C(c1cnn2cc(Br)cnc12)N1CCCC1c1cccc(F)c1 (centres undefined)
 : 30*	0.57
> C=C1COC(=O)N1c1ccccc1[N+](=O)[O-]
 : nt	-0.97
> CC1=C(c2ccc(C)c(C)c2)S(=O)(=O)N=C1N1CCN(C2CCCCC2)CC1
 : -0.62	-2.5
> Cc1cc2[nH]c(=O)c(=O)[nH]c2cc1S(=O)(=O)N(C)C1CCCCC1
 : 0.2	nt
> COc1ccc(C2C3=C(CC(C)(C)CC3=O)Nc3n[nH]c(-c4ccc(Cl)cc4)c32)cc1 (centres undefined)
 : -0.26	nt
> CC(=O)c1cccc(NC(=O)CSc2nnc3c4ccccc4n(C)c3n2)c1
 : nt	-1.6
> COC(=O)Nc1nc2ccc(C(=O)c3cccs3)cc2[nH]1
 : 1.6	-1.6
> CC(C)c1nn(-c2cccc(C(F)(F)F)n2)c(=O)o1
 : nt	-1.8
> COc1ccccc1-c1cc2nc(C)cc(N3CCCC3)n2n1
 : 1.8	-1.4
> O=C(Cn1nnc2sc3c(c2c1=O)CCCC3)Nc1ccc(F)cc1
 : -0.29	-1.9
> Cc1ccc(Nc2cc(C)nc3nc(-c4ccccc4)nn23)cc1
 : 0.49	0.6
> C=CCSc1ncc(CO)n1Cc1ccc(F)cc1
 : 0.91	nt
> CC1CN(Cc2c(O)ccc3c(=O)c(Oc4ccc5ccccc5c4)c(C(F)(F)F)oc23)CC(C)O1 (centres undefined)
 : -6.7	-0.89
> CCCNC(=O)CN1c2ccccc2NC2=C(C(=O)CC(C)(C)C2)C1c1ccco1 (centres undefined)
 : 0.18	nt
> O=C(NCc1ccc2c(c1)OCO2)C1CC(c2c(F)cccc2Cl)=NO1 (centres undefined)
 : 0.43	0.71
> CCCN(CCS(=O)(=O)N1CCNCC1)S(=O)(=O)c1cc(OC)ccc1OC
 : 1.3	nt
> COc1cc(C(O)c2cc(C(F)(F)F)cc(C(F)(F)F)c2)cc(OC)c1OC (centres undefined)
 : nt	-0.61
> Cc1ccc(F)cc1NS(=O)(=O)c1ccc2c(c1)C(C)(C)C(=O)N2C
 : 1.5	nt

(continued)
Value order: TAR Tat displ	CDC25B-CDK2 inh
> Cc1nnsc1C(=O)Nc1ccc2nsnc2c1
 : 0.09	-2
> COCCOC(=O)C1=C(C)NC2=C(C(=O)CCC2)C1c1ccc(Br)cc1 (centres undefined)
 : -0.84	-0.26
> CN(C)C(=O)Cc1c[nH]c2ccccc12
 : 0.84	-1.6
> Cc1cccnc1NS(=O)(=O)c1ccc(CN2C(=O)c3cccnc3C2=O)cc1
 : 0.29	nt
> O=C(c1cc2c(s1)-c1ccc(Cl)cc1S(=O)(=O)C2)N1CCN(C2CCCCC2)CC1
 : -0.13	-0.13
> CCC(C(=O)NCCCOC)n1c2ccccc2c2nc(=O)cc(C)n21 (centres undefined)
 : 0.33	-2.3
> CCC12CN3CC(CC)(CN(C1)C3c1ccccc1O)C2=O (centres undefined)
 : -0.07	0.29
> O=C1OC(C(=O)Nc2cccc(Cl)c2)Cc2ccccc21 (centres undefined)
 : 1.2	-1.1
> CC(=O)NC(CC(=O)O)C(=O)NC(CCC(=O)O)C(=O)O (centres undefined)
 : -0.43	nt
> C=C(C)Cn1c(CCNC(=O)CCC(C)O)nc2ccccc21 (centres undefined)
 : 0.21	-0.88
> Cc1ccc(S(=O)(=O)c2cn(C)c3cc(N4CCOCC4)c(F)cc3c2=O)cc1C
 : -0.06	nt
> CCOC(=O)c1nc(Nc2ccc(F)c(Cl)c2)c2ccccc2n1
 : 2.2	nt
> Cc1ccc(C)c(N2CCN(S(=O)(=O)c3ccc(-c4cc(C)[nH]n4)s3)CC2)c1
 : -0.46	nt
> O=C1CCCc2nn(-c3ccccc3)c(-c3cccs3)c21
 : nt	-1.1
> CC1=C(c2ccc(F)cc2)S(=O)(=O)N=C1Nc1cccc(Cl)c1
 : 0.31	nt
> CCOC(=O)c1ccc(-n2nnc(/C=C/C=C/N3CCOCC3)n2)cc1
 : nt	-0.82
> Cn1c2c(c(=O)n(C)c1=O)CN(CC1CCN(Cc3ccc(Cl)cc3)CC1)CN2
 : -0.85	-2.3
> CC(=O)N1c2ccccc2C(=O)C1N1CCN(c2ncccn2)CC1 (centres undefined)
 : -0.26	nt
> Cc1ccc2c(c1)C(O)(CC(=O)c1cc3ccccc3o1)C(=O)N2 (centres undefined)
 : 1.4	nt
> Cc1cc(=O)[nH]c2c1c(-c1ccccc1)nn2-c1ccccc1
 : nt	-1.9
> COC(=O)C1=C(C)NC2=C(C(=O)c3ccccc32)C1c1ccc(OC)cc1 (centres undefined)
 : -0.79	1.2
> CN(C(=O)Cn1ncc2c(=O)oc3ccccc3c21)c1cccc(Cl)c1
 : 2.7	-1.1
> CC(=O)Nc1sc(C(C)=O)cc1C(=O)O
 : nt	-0.93
> CS(=O)(=O)Nc1cccc(C2=NN(C(=O)CCCC(=O)O)C(c3ccco3)C2)c1 (centres undefined)
 : -0.4	-1.1
> Cc1ccc(NS(=O)(=O)c2c(C)nc3sc4ccccc4n3c2=O)cc1C
 : 1.6	nt
> c1ccc(CN2CCN(c3ncnc4c3nc3n4CCCC3)CC2)cc1
 : 0.97	nt
> Cc1cc2oc(C(=O)N(Cc3ccccc3F)C3CC3)c(C)c2cc1C
 : 1.2	-2.2
> Cc1onc(-c2ccccc2)c1-c1csc(CS(=O)(=O)C(C)(C)C)n1
 : nt	-1.4
> Cc1nc(S(=O)(=O)NCc2ccccc2Cl)cn1C
 : 0.93	nt
> COc1ccc(Br)cc1CN1CCN(Cc2ccc(SC)cc2)CC1
 : -1.2	-0.34
> CN(C)c1cc(-c2cccc([N+](=O)[O-])c2)oc(=O)c1Cl
 : nt	-1.3
> COc1ccc(S(=O)(=O)n2nc(C)c(S(=O)(=O)N3CCC(C)CC3)c2C)cc1OC
 : 1.1	nt
> Cc1cc(NC(=O)CSc2cn(CC(=O)N3CC(C)OC(C)C3)c3ccccc23)no1 (centres undefined)
 : -0.53	nt
> Cc1c(C(=O)NCCN2CCN(C)CC2)sc2nc3n(c(=O)c12)CCCCC3
 : 0.9	nt
> CCN(CC)CCN1C(=O)c2c(NC(C)=O)c3cc(F)ccc3n2CC1(C)C(=O)NC1CCCC1 (centres undefined)
 : 0.24	nt
> Cc1cccc(Nc2nc3ccccc3n3cnnc23)c1
 : 0.2	-0.93
> O=C(NNC(=S)Nc1ccccc1Cl)c1ccc(OC(F)(F)F)cc1
 : nt	-1.3
> COC(=O)NCC(C)OC(=O)Nc1ccc(Cl)cc1 (centres undefined)
 : 0.11	0.11
> COc1cc(OC)c(NC(=O)Cn2nc3c(cc2=O)CCCC3)cc1Cl
 : 2.8	nt
> Clc1ccccc1CNc1nc(-c2ccccc2)no1
 : 1	nt
> CCCOc1ccc(-c2cc(C(F)(F)F)c(C#N)c(SCC(=O)O)n2)cc1
 : nt	-3.5
> COC(=O)c1c(C)oc2ccc(OCC(=O)OC(C)(C)C)cc12
 : nt	-0.59
> Cc1c(C(=O)N2CCCC2)c(S(=O)(=O)NC2CCCc3ccccc32)c(C)n1C (centres undefined)
 : 0.35	nt
> O=C1CCSc2ccc(S(=O)(=O)N3CCN(C4CCCCC4)CC3)cc2N1
 : -0.93	nt
> O=C(Cn1ncn2nc3c(c2c1=O)CCCC3)Nc1ccc(Br)cc1
 : 1.3	nt
> O=C(O)CCCN1C(=O)c2cccc3cccc(c23)C1=O
 : 2.2	-1.5
> CCC(CN1CCOCC1)NS(=O)(=O)c1cc(-c2cc(C)no2)ccc1C (centres undefined)
 : 0.61	nt
> Cc1c(C(=O)C(=O)Nc2cccc(Br)c2)c2ccccc2n1C
 : nt	-1.9
> CC12CN3CC(C)(CN(C1)C3c1ccc(N)cc1)C2=O (centres undefined)
 : -1.7	-2.2
> O=C(Cn1c(=O)oc2cc(S(=O)(=O)N3CCCC3)ccc21)N1CCCCC1
 : nt	-1.1
